GIV-Gai inh: inhibitors of GIV peptide binding to Galpha-i3, primary screen, biochemical, fluorescence polarization, FITC-GIV GBA peptide, rat Galphai3. Guanine nucleotide-binding protein G(i) subunit alpha-3 (Rattus norvegicus), P08753. 90 min; stronger effect = lower value; scaled: aluminum fluoride 0%, vehicle 100%. percent of control (FP), % (test concentration not listed). 0.42% of 210,000 active;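 active means replicate mean at 85% of control or lower, very high polarization wells dropped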;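 further: wells of about 15 µL received 100 nL stock; the first replicate is given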
Target sequence (P08753 whole entry, looked up): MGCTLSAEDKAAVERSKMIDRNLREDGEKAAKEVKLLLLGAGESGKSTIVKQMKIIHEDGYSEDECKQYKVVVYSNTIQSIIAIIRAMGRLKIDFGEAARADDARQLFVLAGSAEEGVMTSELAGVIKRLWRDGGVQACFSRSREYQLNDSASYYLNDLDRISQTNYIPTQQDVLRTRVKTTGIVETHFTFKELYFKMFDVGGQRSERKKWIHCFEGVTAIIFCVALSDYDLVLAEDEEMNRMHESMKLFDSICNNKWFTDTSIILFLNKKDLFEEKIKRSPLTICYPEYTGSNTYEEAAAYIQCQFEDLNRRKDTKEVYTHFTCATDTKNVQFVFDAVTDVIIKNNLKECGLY
HCMV NEC inh: inhibitors of HCMV UL50-UL53 interaction, biochemical, HTRF; HCMV UL50-UL53 nuclear egress complex (human cytomegalovirus); inhibition, % (test concentration not listed); AID 1918969, 2023; 0.15% of 190,000 active; normalized percent inhibition;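 active means both replicates at 50% or more, plus weaker picks with an unusually low signal ratio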;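 further: stock transfer was 100 nL into about 20 µL; 0% = negative control wells and 100% = wells with untagged competitor protein; inactives centre near -12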
Sa growth inh: S. aureus growth inhibition at 42 and 30 °C, primary screen, LtaS inhibitor project, RN4220, two temperatures. OD600, 20 h, 42 °C; stronger effect = lower value. relative growth, % (concentration not given with the values). 0.53% of 170,000 active. AID 720641, 2013;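 active means growth at 42 °C up to 50% and 20 or more points under that at 30 °C, or under 10% at both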;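 further: 300 nL library stock went into each well; scaled to the means of positive and negative controls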
Sa growth inh second temp: recorded beside Sa growth inh, whose call it bears; relative growth, %; measured here: growth at 30 °C;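 optical density after 20 h as mean of two plates; 100% = untreated growth and lower means inhibition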
Active calls of the source: *; nt = no result given; & = joins results of further samples.

SMILES | GIV-Gai inh | HCMV NEC inh | Sa growth inh | Sa growth inh second temp
CCOC(=O)c1ccc(N2CCOCC2)c(NC(=O)c2nccnc2C(=O)O)c1 | 104 | -3 | 97 | 94
O=C(O)c1cccc(N2CCCCC2)c1 | 104 | -22 | 99 | 95
CCN(CC)S(=O)(=O)c1ccc2c(c1)CC(C)N2C(=O)C1CC1 (stereo not given) | 100 | -23 | 97 | 85
N#Cc1ccc(CSC(N)=Nc2ccccc2)cc1 | 105 | -11 | 87 | 79
CC(=O)Nc1ccc(NC(=O)Cc2c[nH]c3ccccc23)cc1 | 96 | -14 | 90 | 77
CN1CCN(CNC(=O)c2cnccn2)CC1 | nt | 0 | 100 | 92
O=C(CSc1nc2c(c(=O)[nH]1)CCC2)Nc1ccccc1C(F)(F)F | 104 | -28 | 93 | 87
CCn1cc(C(=O)NCC(OC)OC)c(=O)c2cc(S(=O)(=O)N3CCc4ccccc4C3)ccc21 | 102 | -15 | 89 | 89
Cc1ccc(CNC(=O)c2ccc(NCc3ccc(C)cc3)c(S(=O)(=O)N3CCOCC3)c2)cc1 | 106 | -4 | nt | nt
CN1Cc2ccccc2N(CC(=O)O)C1=O | 102 | -17 | 92 | 76
COCCNC(=O)c1ccc(N2CCCS2(=O)=O)cc1 | 102 | -24 | nt | nt
CCOC(=O)C(Cc1ccccc1)C(=O)Nc1nc2ccccc2s1 (stereo not given) | 100 | nt | 73 | 62
Cc1cc(NC(=O)C2CCCN(S(=O)(=O)c3ccc(Br)s3)C2)ccc1Br (stereo not given) | 101 | -12 | 93 | 90
CC(=O)Nc1nonc1-c1nnc(SCC(=O)Nc2ccc(F)cc2F)n1-c1ccccc1 | 98 | -25 | 72 | 22
Cc1nn(-c2ccccc2)c2sc(C(=O)C(C#N)c3ccc4ccccc4n3)cc12 (stereo not given) | nt | 10 | 109 | 102
Cc1ccccc1OCC(=O)Nc1ccc(-c2nc3ccccc3o2)cc1 | 101&96 | -2 | 106&100 | 83&83
O=C1OC2(CCCCC2)OC(=O)C1=CNc1nccs1 | 96 | nt | 87 | 91
NC(=O)COC(=O)/C=C/c1ccc(Cl)cc1Cl | nt | -13 | 98 | 90
O=C(NNc1ccccc1)C(F)(F)F | nt | -15 | 73 | 57
COc1cccc(CSc2nc3ccncc3[nH]2)c1 | 100 | 0 | 85 | 79
COc1ccc2c(c1)SC1=NC(c3ccccc3)(C(F)(F)F)NC(=O)N12 (stereo not given) | 95 | nt | 94 | 86
O=C(CN1C(=O)CCC1=O)Nc1ccc(OC(F)F)cc1 | nt | -7 | 77 | 93
Cc1sc(-c2noc(C3CCC3)n2)cc1NC(=O)c1cncc(Br)c1 | 109 | -8 | nt | nt
O=C1S/C(=C\c2cc(Br)ccc2O)C(=O)N1Cc1ccc(F)cc1 | 109 | -8 | nt | nt
CCc1ccc(OCC(=O)NCc2nc(-c3cccc(C)c3)no2)c(Br)c1 | 116 | 27 | 82 | 93
O=C1/C(=C\c2ccc(-c3cccc(Cl)c3)o2)Sc2ccccc21 | 184 | -8 | nt | nt
Cn1/c(=N/NC(=S)NC(=O)C2CC2)sc2ccccc21 | nt | 0 | 74 | 61
O=C(NN=C1CCCC1)c1ccc(Cl)cc1 | 103 | -13 | 96 | 90
OC(CNCc1ccc2c(c1)OCO2)CSc1ccccc1 (stereo not given) | 105 | 4 | 105 | 98
Cc1ccccc1OCC(=O)NC(C)(C)C | nt | -2 | 88 | 92
Cc1cccc(CN2CCC(CNc3ncnc4onc(-c5ccc(Cl)cc5)c34)CC2)c1 | 102 | -31 | 108 | 87
O=C(CCc1nc(-c2ccccc2F)no1)Nc1cccc(C(F)(F)F)c1 | 105 | -4 | 102 | 90
COc1cc(C2C(C(=O)Nc3ccc(Br)cn3)=C(C)NC3=C2C(=O)CC(C)(C)C3)ccc1O (stereo not given) | 103 | -11 | nt | nt
COc1ccccc1NC(=O)CSc1nc(-c2ccccc2F)nc2cc(=O)[nH]n12 | 97 | nt | 60 | 54
Cc1nn2c(nc1=O)NN=C(c1ccccc1)C2 | 98 | -65 | 92 | 88
CCOC(=O)/C=C(\C)Nc1ccc(Cl)cc1 | 107 | nt | 104 | 101
COc1ccc2cc(S(=O)(=O)Nc3ccccn3)ccc2c1 | 101 | -29 | 95 | 86
Cc1cc(C(=O)N2CCc3ccccc3C2)no1 | 107 | -1 | nt | nt
CCN(CC)c1cc(Nc2ccc(-c3ccccc3)cc2)c([N+](=O)[O-])c2nonc12 | 113 | 11 | nt | nt
O=C(Nc1ccc2c(c1)N(C1CCCC1)C(=O)c1ccccc1S2)c1ccc(F)cc1 | 107 | nt | 89 | 101
CCOc1ccccc1C(=O)NC1CC2CCCC(C1)N2C1CC1 (stereo not given) | 104 | -24 | 111 | 90
COc1cccc2sc(N(CCCN(C)C)C(=O)c3cccc(Cl)c3)nc12 | 110 | -10 | nt | nt
CS(=O)c1nc2ccccc2s1 (stereo not given) | 105 | -2 | 108 | 97
Cc1cc(C)c(S(=O)(=O)NCCO)c(C)c1 | nt | 19 | 100 | 105
O=C(NCc1ccccc1)c1cc(C2CC2)on1 | 100 | nt | 116 | 89
COc1ccc(CCNC(=O)CCCn2c(=O)c3cccn3c3ccc(F)cc32)cc1OC | 101 | -11 | 93 | 61
CCOc1ccc(NC(=O)C2CCN(S(=O)(=O)c3cc(-c4noc(C)n4)ccc3C)CC2)cc1 | 110 | nt | 105 | 98
Cc1sc2nc3n(c(=O)c2c1-c1ccccc1)CCC3 | nt | 0 | 76 | 94
CCOC(=O)C1CCCN(C(=O)Cn2ncc3c(C)n(Cc4ccccc4Cl)c(C)c3c2=O)C1 (stereo not given) | 110 | 2 | 98 | 88
CCCc1nc(Nc2nc3ccccc3o2)ncc1C(=O)OCC | nt | 10 | 100 | 95
Other records follow:
SMILES | GIV-Gai inh | HCMV NEC inh | Sa growth inh | Sa growth inh second temp
CCn1cc(C(=O)NCCc2ccc(OC)c(OC)c2)c(=O)c2cc(S(=O)(=O)N(C)C3CCCCC3)ccc21 | 101 | -30 | 95 | 85
O=C(Nc1ccc(S(=O)(=O)Nc2nccs2)cc1)c1cc(-c2ccccc2)nc2ccccc12 | 102 | nt | 121 | 73
Cc1csc(NC(=O)CCc2nc(-c3nn(-c4ccccc4)c(=O)n(C)c3=O)no2)n1 | 105 | -94 | nt | nt
CC(COc1ccc2c(c1)OCO2)NC(=O)Cn1nnc2ccccc2c1=O (stereo not given) | 98 | -15 | 99 | 92
O=c1n(Cc2ccc(F)cc2Cl)c2ccccc2c2nc(-c3ccccc3)nn12 | 99 | nt | 99 | 95
Cc1sc2nc3ccc(NCc4ccco4)nn3c(=O)c2c1C | nt | -50 | 85 | 85
CCOC(=O)C1=C(C)N=c2s/c(=C\c3ccc(O)c(OCC)c3)c(=O)n2C1c1ccc(OC)c(OC)c1 (stereo not given) | 107 | 9 | nt | nt
CCc1ccc(C(=O)COC(=O)C(Cc2c[nH]c3ccccc23)NC(=O)c2ccc(Br)cc2)cc1 (stereo not given) | 104 | 8 | 105 | 99
CCc1nc(SCS(=O)(=O)c2ccc(C)cc2)c(C#N)c2c1CCCC2 | 102 | nt | 105 | 90
COCc1cc(=O)[nH]c2c1c(-c1cccs1)nn2C | 103 | -34 | 104 | 87
COc1cc(CNCCc2ccc(F)cc2)ccc1OCc1ccc2c(c1)n(C)c(=O)n2C | 105 | -1 | nt | nt
CS(=O)(=O)N1c2cccc3cccc(c23)S1(=O)=O | nt | -17 | 97 | 89
CC(C)(C)n1nnnc1C(c1ccccn1)N1CCC(Cc2ccccc2)CC1 (stereo not given) | 106 | -16 | 90 | 70
Cc1nn(C2CCS(=O)(=O)C2)c(Cl)c1/C=C/C(=O)OCC(N)=O (stereo not given) | nt | -11 | 109 | 94
Cc1cc(Nc2ccccc2)n[nH]1 | nt | -31 | 122 | 55
C/C(=C\C(=O)c1ccc(C)o1)Nc1ccc(F)c(C)c1 | 100 | -34 | 123 | 95
Cc1cc(C)c2c(n1)nn1c(C)c(CCC(=O)Nc3ccc(C)c(Cl)c3)c(C)nc21 | 96 | 9 | 86 | 92
Cc1nc2nc(N(Cc3ccccc3)C(=O)C(C)C)[nH]n2c(=O)c1C | 109 | -24 | nt | nt
O=C(c1ccccc1)c1nc2ccccc2s1 | nt | -118 | 51 | 51
S=C(Nc1cccnc1)N1CCCCC1 | 103 | 0 | 103 | 106

4 compounds from above with just Sa growth inh, Sa growth inh second temp and HCMV NEC inh:
molecule,Sa growth inh,Sa growth inh second temp,HCMV NEC inh
O=C(NCc1ccccc1)c1cc(C2CC2)on1,116,89,nt
Cc1cc(C(=O)N2CCc3ccccc3C2)no1,nt,nt,-1
CCN(CC)c1cc(Nc2ccc(-c3ccccc3)cc2)c([N+](=O)[O-])c2nonc12,nt,nt,11
CCOc1ccccc1C(=O)NC1CC2CCCC(C1)N2C1CC1 (stereo not given),111,90,-24

Compound profiles, as listed above.
Shown for `Cc1csc(NC(=O)CCc2nc(-c3nn(-c4ccccc4)c(=O)n(C)c3=O)no2)n1` → GIV-Gai inh = 105; HCMV NEC inh = -94; Sa growth inh = nt; Sa growth inh second temp = nt
Shown for `CCn1cc(C(=O)NCC(OC)OC)c(=O)c2cc(S(=O)(=O)N3CCc4ccccc4C3)ccc21` → GIV-Gai inh = 102; HCMV NEC inh = -15; Sa growth inh = 89; Sa growth inh second temp = 89
Shown for `O=c1n(Cc2ccc(F)cc2Cl)c2ccccc2c2nc(-c3ccccc3)nn12` → GIV-Gai inh = 99; HCMV NEC inh = nt; Sa growth inh = 99; Sa growth inh second temp = 95

Next section.
SMILES | GIV-Gai inh | HCMV NEC inh | Sa growth inh | Sa growth inh second temp
COC(=O)c1ccc(NC(=O)c2sc3nc(C)cc(=O)n3c2C(=O)Nc2ccccc2C)cc1 | 103 | 2 | nt | nt
Cc1ccc(-n2nnc(C(=O)OCc3ccc(Cl)cc3)c2C)cc1C | 102 | -9 | nt | nt
CC(C)Cn1c(-c2ccc(S(=O)(=O)N3CCCC3)cc2)csc1=Nc1ccccc1 | 104 | 8 | 101 | 86
O=C(Cn1cnc2sccc2c1=O)NCCC1=CCCCC1 | nt | 20 | 108 | 103
COc1ccc(NC(=O)c2cc(C(C)=O)n3ccccc23)cc1 | 104 | nt | 103 | 93
O=C(CSc1nc(=O)n(Cc2ccccn2)c2c1CCC2)Nc1ccccc1 | 103 | nt | 108 | 81
O=C1CC(c2ccco2)CC(O)=C1C=Nc1cc(Cl)ccc1Cl (stereo not given) | 102 | -11 | 102 | 78
O=S(=O)(c1ccc(Cc2ccc(S(=O)(=O)N3CCCCC3)cc2)cc1)N1CCCCC1 | 98 | nt | 139 | 88
Nc1ccc2c(c1)S(=O)(=O)c1cc(N)ccc1O2 | 104 | 9 | 109 | 103
O=C(CSc1nc2cc(-c3ccccc3)[nH]c2c(=O)n1Cc1ccccc1)Nc1ccc2c(c1)OCO2 | 104 | -11 | nt | nt
O=C(Cn1c(=O)n(-c2ccc(Cl)cc2)c(=O)c2sc3ccccc3c21)NC1CCCC1 | 103 | -24 | 114 | 89
O=C(c1ccc(CSc2nc3ccncc3n2Cc2ccc(F)cc2)cc1)N1CCCCC1 | 105 | nt | 130 | 83
Cc1ccc2c(c1)C(O)(C1COC(C)(C)CC1=O)C(=O)N2 (stereo not given) | 99 | -17 | nt | nt
FC(F)(F)C1=CC=NCCN1 | 109 | -46 | 96 | 85
COc1ccc(C)cc1NC(=O)C(=S)NCc1ccco1 | nt | 7 | 114 | 77
CCc1ccccc1N(C)S(=O)(=O)c1ccc2[nH]cc(C(=O)NCCOC)c(=O)c2c1 | 104 | nt | 103 | 82
Cc1ccc(S(=O)(=O)CC(=O)N2CCN(c3nc4c(F)cccc4s3)CC2)cc1 | 102 | nt | 117 | 87
CCOC(=O)c1cc(OC(=O)c2cc(OC)c(OC)c(OC)c2)n(-c2ccccc2)n1 | 98 | -18 | 93 | 88
CCOC(=O)C1=NN(c2ccccc2)C(=C2C(=O)c3ccccc3C2=O)C1c1cccs1 (stereo not given) | 103 | -43 | 120 | 88
CCCN(CCC)C(=O)Cn1c(SCc2cccc(F)c2)nc2ccncc21 | 101 | 7 | 110 | 100
CN(C)S(=O)(=O)c1ccc2nnn(OCC(=O)NCCc3ccc(Cl)cc3)c2c1 | nt | -25 | 84 | 90
Cc1nn(C(=O)c2cc3c(s2)CCCC3)c(C)c1Sc1ccc(Br)cc1 | 101 | nt | 91 | 95
CCCN(C(=O)Cn1ncc2c1-c1ccccc1OC2)c1ccc(Cl)c(Cl)c1 | 102 | nt | 84 | 71
CC1=C(C(=O)Nc2cc(Cl)ccc2C)C(c2sccc2C)n2ncnc2N1 (stereo not given) | 100 | nt | 87 | 91
COc1ccccc1Nc1ncc(C(=O)NCCc2ccc(Cl)cc2)c2ccccc12 | 103 | 12 | nt | nt
Cc1cc(N2CCCCC2C)n2ncnc2n1 (stereo not given) | 103 | -14 | 91 | 78
Cc1cc(C)n2nc(SCC(=O)Nc3ccccc3C)nc2n1 | 101 | nt | 124 | 88
Cc1nc2c(cnn2-c2ccccc2)c(=O)[nH]1 | nt | 0 | 94 | 88
CC(C)(C)NC(=O)C(=O)NCC(c1cccnc1)N1CCc2ccccc2C1 (stereo not given) | 115 | 0 | nt | nt
COc1ccc(OCC(=O)N2CCC(c3nc4ccccc4s3)CC2)cc1 | 95 | -31 | 109 | 84
Cc1nc(-c2cccnc2)cs1 | 103 | 16 | 107 | 104

High-throughput results: PubChem BioAssay, ICCB-Longwood Screening Facility, Harvard Medical School
